# ALR H2O2 inh: inhibitors of human ALR sulfhydryl oxidase, primary screen, biochemical, H2O2 detection, HRP-luminol luminescence, single point; purified ALR, DTT oxidation; inhibition, % (test concentration not listed); actives 3.8% (n = 290,000); AID 485317, 2010;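 active = mean and each replicate at 75% or more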;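 also: stock transfer was 7.5 nL into about 7.5 µL; 0% = neutral wells and 100% = wells with inactivated enzyme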
# UCH37 DUB inh: inhibitors of human UCH37 deubiquitinase, primary screen, biochemical, Ub-AMC cleavage, fluorescence; actives 0.33% (n = 330,000); purified proteasome/UCH37; inhibition, % (concentration not given with the values); Ubiquitin carboxyl-terminal hydrolase isozyme L5 (Homo sapiens), Q9Y5K5;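 active = mean of two replicates above 20%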;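 also: 0% = compound-free wells with enzyme and 100% = wells lacking proteasome; stock transfer was 100 nL into about 20 µL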
# Target sequence (Q9Y5K5 whole entry, looked up): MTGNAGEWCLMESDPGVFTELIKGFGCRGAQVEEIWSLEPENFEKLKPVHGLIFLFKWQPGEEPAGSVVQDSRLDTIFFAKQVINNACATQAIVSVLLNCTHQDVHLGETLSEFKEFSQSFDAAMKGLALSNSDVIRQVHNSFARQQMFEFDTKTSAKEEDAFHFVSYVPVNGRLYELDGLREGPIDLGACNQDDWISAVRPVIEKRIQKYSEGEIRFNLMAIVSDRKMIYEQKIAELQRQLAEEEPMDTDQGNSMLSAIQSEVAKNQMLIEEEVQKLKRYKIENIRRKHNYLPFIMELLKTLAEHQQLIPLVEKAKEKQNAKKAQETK
#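 Material: Human UCH37 enzyme supplied as purified proteasome complex | Schedule: 30 min compound-proteasome preincubation then 25 min substrate reaction, room temperature | Detection: AMC fluorescence from Ub-AMC cleavage, excitation 355 nm, emission 460 nm | Benchmarks: Wells without proteasome as full block, compound-free enzyme plus substrate as uninhibited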
# FGF22 binding: binders of human FGF22 protein, primary screen, FGF22 synaptogenesis inhibitor project, biophysical, thermal shift, single point. AID 651658, 2012. calls only at 9.99 µM. recombinant FGF22 thermal shift, SYPRO orange fluorescence; percent of sucrose octasulfate shift, DMSO zero. actives 1.5% (n = 340,000). Fibroblast growth factor 22 (Homo sapiens), Q9HCT0;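 active = melting point raised past a set limit in the mean and every replicate; three in four hits are not shown here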
# Target sequence (Q9HCT0 whole entry, looked up): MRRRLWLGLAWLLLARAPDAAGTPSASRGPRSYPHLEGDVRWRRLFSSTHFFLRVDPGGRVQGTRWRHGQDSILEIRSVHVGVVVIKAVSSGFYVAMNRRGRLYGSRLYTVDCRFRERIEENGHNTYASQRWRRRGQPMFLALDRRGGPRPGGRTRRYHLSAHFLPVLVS
# E coli growth: E. coli growth inhibition, primary screen, OD600; OD600 absorbance (no concentration beside the values); AID 1053175, 2014; Escherichia coli growth, 23 h; active compounds read low; actives 0.21% (n = 330,000);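 active = OD600 absorbance below the run mean of sample wells minus 3.6 SD, in any replicate, cut at about 0.56 in these data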;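 also: stock transfer was 300 nL into about 60 µL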
# HNF4A DNA FP: change in binding of human HNF4A to DNA, primary screen, biochemical, fluorescence polarization, FITC-DNA; 1 h; Hepatocyte nuclear factor 4-alpha (Homo sapiens), P41235; actives 0.3% (n = 360,000); AID 1224865, 2016; activity change, % at 10 µM; in the data active = activity change above about 30%, passing the limit was not always enough;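 also: controls were the assay level and a saturating level of protein; the project sought stronger binding though the title names inhibitors; some compounds called inactive have numbers as strong as hits; positive values seem to mean higher polarization but the record does not say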
# B2AR ag: beta2AR agonists driving receptor internalization, primary screen, cell-based, FAP fluorogen, flow cytometry | actives 0.43% (n = 340,000) | Beta-2 adrenergic receptor (Homo sapiens), P07550 | response, % (no concentration beside the values) | Am2.2-beta2AR cells; reference of the scale not given here | AID 504454, 2011;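 active = response above a set limit, near 3 SD of response in nonfluorescent compounds, cut at about 42% in these data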;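 also: stock transfer was 100 nL into about 11 µL; a reference agonist was the positive control; negative values mostly stem from fluorescent compounds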
# * hit, by the source's call; i = inactive; nt = not tested or not shown. An excerpt; the hit share may differ from the screen's.
SMILES,ALR H2O2 inh,UCH37 DUB inh,FGF22 binding,E coli growth,HNF4A DNA FP,B2AR ag
CC1=C[C@@H](C)CC=C[C@H]2[C@@H]3O[C@]3(C)[C@@H](C)[C@H]3[C@H](Cc4c[nH]c5ccccc45)NC(=O)[C@]32C(=O)C=CC(=O)[C@@H]1O,nt,1.4,nt,0.76,nt,nt
CC(=NN=C(N)N)c1ccccc1,nt,5.0,nt,0.66,nt,nt
CCOC(=O)C(CCCN(CC)CC)=NO,nt,3.1,nt,0.79,nt,nt
CC(CCc1c[nH]c2ccccc12)=NO,nt,1.2,nt,0.72,nt,nt
CC(CC(c1ccccc1)c1c(O)c2ccccc2oc1=O)=NNc1ccc([N+](=O)[O-])cc1[N+](=O)[O-] (centres undefined),nt,10,nt,0.66,nt,nt
NC(=NN=Cc1ccc(-c2ccc(O)c(C(=O)O)c2)o1)N[N+](=O)[O-],nt,22*,nt,0.7,nt,nt
CCCCCC(=NO)c1c[nH]c2ccccc12,nt,4.5,nt,0.65,nt,nt
CCCCC(=NO)c1c(C)[nH]c2ccccc12,nt,-0.6,nt,0.72,nt,nt
CC(=NOC(=O)N(C)C)c1ncc(C(F)(F)F)cc1N1CCOCC1,nt,2.9,nt,0.73,nt,nt
CC(=O)O[C@@H]1/C=C/[C@](C)(O)C[C@@H](C)C/C=C/[C@H]2[C@H](O)[C@@](C)(O)[C@@H](C)[C@H]3[C@H](Cc4ccccc4)NC(=O)[C@@]312,-5,nt,nt,nt,-0.7,nt
CC1=CC2OC3CC4OC(=O)C=CC=CC(=O)OCCC(C)C(O)C(=O)OCC2(CC1O)C4(C)C31CO1 (centres undefined),nt,nt,nt,nt,4.2,3
CCCCN(Cc1ccccc1)C1CCN(CCc2ccccc2)CC1,nt,nt,nt,nt,2.6,14
O/N=C/c1c[nH]c2ccccc12,nt,nt,nt,nt,3.2,-6
COc1ccc(/C=C2\C(=N\O)C3CCN2CC3)cc1,nt,nt,nt,nt,0.2,13
O=S(=O)(c1ccc(Cl)cc1)N1Cc2ccccc2-n2nncc2C1,nt,nt,i,nt,-0.5,nt

# Shown as tab-separated lines: six of the compounds above.
SMILES	ALR H2O2 inh	UCH37 DUB inh	FGF22 binding	E coli growth	HNF4A DNA FP	B2AR ag
CCCCCC(=NO)c1c[nH]c2ccccc12	nt	4.5	nt	0.65	nt	nt
CCCCC(=NO)c1c(C)[nH]c2ccccc12	nt	-0.6	nt	0.72	nt	nt
CC(=NOC(=O)N(C)C)c1ncc(C(F)(F)F)cc1N1CCOCC1	nt	2.9	nt	0.73	nt	nt
CC(=O)O[C@@H]1/C=C/[C@](C)(O)C[C@@H](C)C/C=C/[C@H]2[C@H](O)[C@@](C)(O)[C@@H](C)[C@H]3[C@H](Cc4ccccc4)NC(=O)[C@@]312	-5	nt	nt	nt	-0.7	nt
CC1=CC2OC3CC4OC(=O)C=CC=CC(=O)OCCC(C)C(O)C(=O)OCC2(CC1O)C4(C)C31CO1 (centres undefined)	nt	nt	nt	nt	4.2	3
CCCCN(Cc1ccccc1)C1CCN(CCc2ccccc2)CC1	nt	nt	nt	nt	2.6	14

# Continued.
SMILES,ALR H2O2 inh,UCH37 DUB inh,FGF22 binding,E coli growth,HNF4A DNA FP,B2AR ag
Cn1cc(C=O)c2nccnc21,nt,nt,i,nt,-0.4,nt
CC(=O)OC1C(O)C2=C3C4(C)C1C(C)(C)C(=O)CC4C3(O)C(OC(C)=O)C1(CC1C)C2=O (centres undefined),nt,nt,i,nt,3.2,nt
CCC1(CCC(C)C)C(=O)NC(=O)N(c2ccccc2)C1=O (centres undefined),nt,nt,i,nt,0.8,nt
COc1ccc(NC(=O)N2Cc3ccccc3-n3nncc3C2)cc1,nt,nt,i,nt,-2.2,nt
CCOC(=O)[C@]12Cc3ccc4ccccc4c3[C@H]1N(Cc1ccccc1)C(=O)c1ccccc12,nt,nt,i,nt,2.3,nt
CCOC(=O)c1cccc(C2=C(CNC(=O)c3ocnc3C)[C@H]3CC[C@@H](C2)N3Cc2ccccc2)c1,nt,nt,i,nt,5.0,nt
CC(C)C(O)(C(=O)OCC1=CCN2CCC(O)C12)C(C)O (centres undefined),nt,nt,i,nt,3.5,nt

# One compound at a time (already shown).
# CC(C)C(O)(C(=O)OCC1=CCN2CCC(O)C12)C(C)O (centres undefined) as listed: ALR H2O2 inh: nt; UCH37 DUB inh: nt; FGF22 binding: i; E coli growth: nt; HNF4A DNA FP: 3.5; B2AR ag: nt
# CC(=O)OC1C(O)C2=C3C4(C)C1C(C)(C)C(=O)CC4C3(O)C(OC(C)=O)C1(CC1C)C2=O (centres undefined) as listed: ALR H2O2 inh: nt; UCH37 DUB inh: nt; FGF22 binding: i; E coli growth: nt; HNF4A DNA FP: 3.2; B2AR ag: nt

# Results in FGF22 binding (2 entries from above):
compound,FGF22 binding
Cn1cc(C=O)c2nccnc21,i
CC(=O)OC1C(O)C2=C3C4(C)C1C(C)(C)C(=O)CC4C3(O)C(OC(C)=O)C1(CC1C)C2=O (centres undefined),i

# High-throughput results as filed in PubChem.
